26S disassembly – blocks ATP-dependent breakdown of the yeast 26S proteasome; anti-FLAG beads, GFP-proteasome disassembly, flow cytometry; inhibition of disassembly, % (test concentration not listed); hit rate 0.2% among 24,000; AID 751;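 active = above 40%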;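 note: plate controls were ATP control with full disassembly for no effect and ATP-gamma-S intact proteasomes for full effect; higher percent means more bead fluorescence retained so stronger block of disassembly; stock transfer was 100 nL into about 10 µL; wells with too few beads may also be inconclusive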
VCAM-1 up – enhancers of VCAM-1 display on endothelial cells, cell-based, plate reader, pooled HUVEC, TNFa stimulus (AID 455); HUVEC TNFa-induced VCAM-1 immunofluorescence, plate reader; numbers were filed only for top-ranked candidate wells; augmentation, % at 5 µM; hit rate 0.2% among 10,000;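 active = a compound raising TNF-alpha-driven VCAM-1 surface staining, with its hit status upheld on visual or statistical review; inactive = the rest, including hits rejected on review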;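 note: 0% = TNFa with vehicle and 100% = strongest image-checked hit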
Starred values were filed as active, the others as inactive; i = inactive; nt = no result given; & = joins results of further samples.

SMILES	26S disassembly	VCAM-1 up
CCn1nnc(NC(=O)c2ccc(-c3ccc(Cl)cc3)o2)n1	1.9	i
O=C(OCCN=C1NS(=O)(=O)c2ccccc21)C1CC(=O)N(c2ccc(Cl)cc2)C1 (configuration not stated)	-3.1	i
Cc1oc(-c2ccccc2F)nc1CS(=O)(=O)CC(=O)NCCCN1CCc2ccccc2C1	2.6	i
O=C(CNS(=O)(=O)c1ccc(Br)s1)N1CCC(N2CCCCC2)CC1	-2.5	nt
COc1ccc(CCNC(=O)CSC2=Nc3ccccc3C3=NC(C(C)C)C(=O)N23)cc1OC (configuration not stated)	2.4	nt
CCC(C)(NC(=O)c1ccc(=O)[nH]c1)C(=O)NC1CCCC1 (configuration not stated)	-0.7	i
CCOC(=O)c1sc(NC(=O)c2cccnc2)nc1C	3.2	nt
CCOc1ccc(C(F)(F)F)cc1NC(C)=O	-0.1	nt
COCCn1c(=N)c(C(=O)NCCc2ccccc2)cc2c(=O)n3cccc(C)c3nc21	3.7	i
Cc1[nH]nc(N=CC2=C(O)CC(C)(C)CC2=O)c1-c1ccccc1	-0.1	i
CCOC(=O)C1CCN(c2c(NCc3ccc(C(=O)NCCC(C)C)cc3)c(=O)c2=O)CC1	-2.3	nt
CCOC(=O)c1[nH]c(C)c(C(=O)N2CCOCC2)c1C	0.3	nt
CCOc1ccc(C(=O)Nc2ccc(NC(=O)c3ccco3)c(Cl)c2)cc1Br	4.7	nt
COC(=O)c1ccc(-n2nnnc2SCc2nn[nH]n2)cc1	1.6	i
Cn1c(NC(=O)c2ccccc2NC(=O)C(C)(C)C)nc2ccccc21	-1.1	i
COc1ccc(OC)c(C2N(c3ccc(Cl)cc3)C(=O)C3CCCN32)c1 (configuration not stated)	85*	nt
C=CCNS(=O)(=O)c1ccc2nsnc2c1	-0.9	i
Cc1ccc(-n2ncc3c(=O)n(CC(=O)N4CCCc5ccccc54)cnc32)cc1C	-0.5	i
Nc1nc(-c2ccccc2)cc(-c2ccccc2O)n1	-1.6	nt
CC(C)=CC(=O)OCC(=O)NC(=O)NC(C)(C)C	1.2	i
CCOC(=O)c1c(C)c(C(=O)Nc2ccc3c(c2)OCCO3)c(C)n1C	0.5	nt
CCOC(=O)C1CCN(c2c(NCCCN3CCN(Cc4ccccc4)CC3)c(=O)c2=O)CC1	-1.8	nt
C=CCc1ccccc1OCC(O)CN1CCN(c2ccc(OC)cc2)CC1 (configuration not stated)	-1.1	nt
N#CCCN(C(=O)Nc1ccc(Cl)cc1)c1ccccc1	0.1	i
COc1ccc(NC(=O)NCCCN2CCc3ccccc3C2)cc1	0.3	nt
COc1ccc2c(c1OC)C(=O)OC2C1c2c(cc3c(c2OC)OCO3)CCN1C (configuration not stated)	-1.0&-2.3	i
O=C(NCCCn1ccnc1)c1cnn2c1NC(c1ccccc1)CC2C(F)(F)F (configuration not stated)	-0.4	i
c1ccc(-c2cn3cccnc3n2)cc1	0.3	i
COc1cc(-c2nc3n(n2)C(c2ccncc2)C(C(N)=O)=C(C)N3)cc(OC)c1OC (configuration not stated)	-0.9	nt
COc1ccc(OC(C)C(=O)N2CCN(c3ccccn3)CC2)cc1 (configuration not stated)	2.1	i
Cc1cccc(Cn2c(=O)n(Cc3ccco3)c(=O)c3ccccc32)c1	-1.0	i
CC(=O)N1C(=O)c2cccc3cccc(c23)C(=O)N1C(C)=O	1.6	i
COC(=O)c1ccc(COc2ncnc3c(Cl)cc(Cl)cc23)o1	3.2	i
CCOC(=O)c1c(C)c(C(=O)NCCN2CCOCC2)c(C)n1C	0.1	i
Cc1[nH]nc2c1C(=O)CC(C)(C)C2	-0.2	i
CCCCS(=O)(=O)NC1=NCN(Cc2ccco2)CN1	-0.2	nt
CCN(CC)CCOC(=O)c1ccc(NC(=O)CCNC(=O)Cn2ccc3ccccc3c2=O)cc1	0.1	nt
O=C(N1CCCCCC1)N1CCN(C(=O)N2CCOCC2)CC1	-0.4	i
Cc1ccc(Cn2c(SCC(C)C)nc3c2c(=O)n(C)c(=O)n3C)cc1	-2.9	i
CCCn1c(SCC(=O)NCCc2ccccc2)nnc1-c1ccccn1	0.7	i
Cc1cc(C)nc(NC(=O)c2ccc(OC(C)C)cc2)n1	0.0	i
Cc1nc2ncnn2c(C)c1CCC(=O)NC(C)CCc1ccco1 (configuration not stated)	0.3	nt
COc1ccc(-c2nc(CSCC(=O)NCC3CCCO3)c(C)o2)cc1OC (configuration not stated)	-1.5	nt
COc1ccc(C2C(C(=O)Nc3cccc(C)n3)c3ccccc3C(=O)N2C)cc1 (configuration not stated)	-2.2	nt
CC(C)OCCCNC(=O)c1ccc2c(c1)ncn2C1CCCC1	-0.2	nt
COc1cccc(-c2nc(CS(=O)(=O)CC(=O)NCCC(C)C)c(C)o2)c1	1.0	nt
CCOC(=O)C1=C(c2ccccc2)N(C)C(=O)NC1c1ccc(OC(F)F)c(OC)c1 (configuration not stated)	0.5	nt
CC1(C)CC(=O)CC(C)(C)N1OC(=O)c1ccccn1	-0.2	i
CC1CCCCC1NC(=O)C1CCN(C(=O)c2sccc2-n2cccc2)CC1 (configuration not stated)	-0.3	nt
CCOCCCNS(=O)(=O)c1ccc2c(c1)oc(=O)n2CC(=O)OCC	2.5	i
CCOC(=O)c1sc(=S)n(-c2ccc3c(c2)OCO3)c1N	-2.4	nt
CC(=O)c1ccc(NC2OC(C)C(O)C(O)C2O)cc1 (configuration not stated)	-1.8	i
CCOc1ccc(NS(=O)(=O)c2ccc3[nH]cc(C(=O)NC(C)CC)c(=O)c3c2)cc1 (configuration not stated)	-2.5	nt
COCc1nnc(NC(=O)c2ccc(S(=O)(=O)N(C)c3ccccc3)cc2)o1	-0.6	i
CCOC(=O)Cn1nnnc1CN(Cc1ccc(OC)cc1)Cc1cc2cc(C)cc(C)c2[nH]c1=O	-5.4	i
O=C(CSc1nnc(Cn2cnc3ccccc32)o1)c1ccccc1	-2.1	i
COCc1nnc(NC(=O)CCCOc2ccccc2)s1	-1.7	i
Cc1oc(-c2cc(Cl)ccc2Cl)cc1-c1nn2c(C)nnc2s1	19	nt
COc1cc(NC(=O)Cc2ccccc2OC)cc(OC)c1	0.7	i
Cc1cc(C)c(C#N)c(Oc2ccc(O)cc2)n1	0.3	nt

Additional compounds
SMILES	26S disassembly	VCAM-1 up
O=C(CNS(=O)(=O)c1ccc(Br)s1)NCc1ccc2c(c1)OCO2	-0.7	nt
COc1ccc(-c2noc(CN(C(=O)C(C)(C)C)C(C)C)n2)cc1	-1.2	i
Cc1ccsc1C1C=C(c2cccc(Br)c2)Nc2ncnn21 (configuration not stated)	-0.5	nt
CC(=O)Oc1cccc2c1C(=O)c1c(OC(C)=O)cc(C(=O)O)cc1C2=O	-1.6	i
COC(=O)c1ccc(OCC(=O)Nc2nn(-c3ccccc3)nc2C(N)=O)cc1	-0.8	nt
O=S(=O)(Nc1ccccn1)c1ccc(Oc2ccccc2)cc1	-0.8	i
Cc1nn(C)c(C)c1S(=O)(=O)N1CCC(C(=O)Nc2ccc3c(c2)OCCO3)CC1	0.8	nt
CCOc1ccc(C2CC(c3ccc(CC)cc3)n3nc(N)nc3N2)cc1 (configuration not stated)	0.1	nt
CCCCCn1c(CCNC(=O)c2cccs2)nc2ccccc21	1.5	nt
CCCN(Cc1cc2cc(C)ccc2[nH]c1=O)C(=O)c1cccc(OC)c1	4.0	i
CCOc1ccc(NC(=O)CN(C)S(=O)(=O)c2cccs2)cc1	1.2	i
O=c1c2c(nc3c(-c4cccc(Br)c4)c[nH]n13)CCCC2	-0.2	nt
CCCOc1ccc(C(=O)Nc2cc(-c3nn4c(C)nnc4s3)ccc2C)cc1	-2.6	nt
CCSc1nc2c(c(=O)[nH]1)C(c1ccncc1)C(C(=O)OC)=C(C)N2 (configuration not stated)	-1.9	nt
NS(=O)(=O)c1cc2c(cc1C(F)(F)F)NCNS2(=O)=O	-0.6	i
O=C(Nc1cccc(C(F)(F)F)c1)C1CCN(S(=O)(=O)c2cnc[nH]2)CC1	-2.3	nt
CCn1c(=O)cc(OCC(=O)N(C)c2ccccc2F)c2ccccc21	-0.2	nt
CC(C(=O)Nc1ccc(N2CCOCC2)cc1)N1C(=O)c2ccccc2C1=O (configuration not stated)	-1.8	nt
CN1CCN(c2oc(COc3ccc(-c4ccccc4)cc3)nc2C#N)CC1	-1.0	i
O=C(NCCc1ccc(Cl)cc1)C1CCCN(S(=O)(=O)c2cnc[nH]2)C1 (configuration not stated)	0.1	nt
CCOC(=O)N1CCN(S(=O)(=O)c2ccc3c(c2)OCC(=O)N3)CC1	-1.0	nt
CC(C)CCNC(=O)C(C)N(Cc1ccc(F)cc1)C(=O)c1ccc(CN2CCCCC2)o1 (configuration not stated)	8.9	i
O=C(Nc1ccccc1C(F)(F)F)c1cc(-c2cccc(O)c2)on1	-0.8	nt
COc1ccc(N2CCN(C(=O)c3ccc(CS(=O)(=O)c4ccc(OC)cc4)o3)CC2)cc1	-0.3	nt
Cc1cc(C)n2nc(S(=O)(=O)N(C)Cc3ccccc3)nc2n1	-0.1	i
O=S1(=O)CCC(N=Cc2cc(Br)ccc2O)C1 (configuration not stated)	0.9	i
COCCSc1ccccc1C(=O)Nc1cc(C)on1	-0.7	i
Cc1ccc(NC(=O)CNc2cccc(C)c2C)c(C)c1	-0.8	i
COC(=O)c1ccc2c(=O)n(CCN3CCOCC3)c(SCC(=O)NC3CCCCC3)nc2c1	3.0	nt
CCCc1nc2c(=O)[nH]c3ccccc3c2o1	1.0	nt
CCc1cc(=O)oc2cc(OCC(=O)N(CC)CC)c(Cl)cc12	-2.3	nt
CC(c1ccccc1)N1C(=O)c2ccc(C(=O)NCc3ccco3)cc2C1=O (configuration not stated)	1.4	i
CCOc1ccc(CCNC(=O)C2CCN(S(=O)(=O)CC)CC2)cc1OCC	1.0	nt
CCN(CC)CCCNC(=O)CC1Oc2ccc(C)cc2NC1=O (configuration not stated)	-1.4	nt
CCOc1ccccc1C1C(C(=O)Nc2ccccc2OC)=C(C)Nc2nc(CCCO)nn21 (configuration not stated)	0.5	nt
Cn1cccc1Cc1nnc(SCC(=O)NCc2ccc(F)cc2)n1-c1ccc(F)cc1	3.5	i
O=c1c2ccc(-c3nnc4n3-c3ccccc3SC4)cc2nc2n1CCCCC2	2.0	i
CN(C(=O)C1CCCO1)c1nnc(-c2ccncc2)s1 (configuration not stated)	-1.8	i
NC(=O)COC(=O)c1ccc(S(=O)(=O)N2CCCCCC2)cc1	-0.6	i
CCOC(=O)c1c(C)c(C(=O)NCc2cccs2)c(C)n1C	-0.9	nt
CCN(CC(=O)O)S(=O)(=O)c1cc(Cl)ccc1Cl	-3.7	i
Cc1ccc(C2c3c(oc4ccccc4c3=O)C(=O)N2c2nnc(C(C)C)s2)o1 (configuration not stated)	1.1	i
CCCCN(CC)CCNC(=O)CN(C)S(=O)(=O)c1ccc2c(c1)c(=O)n(C)c(=O)n2C	0.9	nt
CCOC(=O)C1CCN(C(=O)c2c(-c3c(Cl)cccc3Cl)noc2C)CC1	0.3	i
CC1CN(c2nc(-c3ccccc3)nc3ccccc23)CC(C)O1 (configuration not stated)	-0.3	i
Cc1ccnc(SCCn2c(N3CCCCC3)nc3c2c(=O)n(C)c(=O)n3C)n1	-0.4	i
Cn1c(=O)c(=O)n(C)c2cc(S(=O)(=O)N3CCc4ccccc43)ccc21	3.7	nt
CC1CCN(C(=O)CSc2nnc(Cc3cccn3C)n2CCc2ccccc2)CC1	0.9	nt
COc1ccc(OC)c(NC(=O)CNC(=O)Cn2ccc3ccccc3c2=O)c1	-2.7	nt
CC(=O)c1cc2c(cc1NC(=O)CCn1cccc1)OCO2	0.1	nt
COc1ccccc1OCC(=O)Nc1ccc(S(=O)(=O)Nc2nc(C)cc(C)n2)cc1	-1.5	i
COc1ccc(-c2cc(C(=O)N3CCCc4ccccc43)no2)cc1OC	-0.6	nt
COc1cccc(CNC(=O)Cn2cc3c(n2)CCCCC3)c1	-0.4	nt
Cc1cc(NS(=O)(=O)c2ccc(N)cc2)no1	-0.3	i
COC(=O)CS(=O)(=O)c1ccc2c(c1)CC(=O)N2	-1.4	nt
Cc1cc(C)n2nc(SCc3cc(=O)n4ccccc4n3)nc2n1	-0.2	i
CNC(=O)CC(C(=O)O)c1ccc(OC(C)C)cc1 (configuration not stated)	1.5	i
CCOc1ccccc1NC(=O)Cn1cnc2c(cnn2-c2ccc(C)c(C)c2)c1=O	2.0	nt
CC1=CC(=C2C(=O)c3ccccc3C2=O)C=C(C)O1	34	nt

Compound activity deposited in PubChem by several laboratories.

Some of the compounds tested; count on the stated rates, not on these rows.
